Assay outcomes from PubChem.
VDR inhibitor = Inhibitors of the vitamin D receptor (VDR): qHTS; Vitamin D3 receptor (Homo sapiens), P11473; VDR-SRC2-3 peptide fluorescence polarization, 2 h; Potency, µM, without a hit: max response, negative = inhibition, hits mostly inhibitors; actives 0.93% (n = 400,000); AID 504847, 2011; active = well fitted inhibition curve with a large enough effect; inconclusive = small, poorly fitted or top-dose-only effect, or another doubt; inactive = no such curve, though single readings can be large or run the other way; also: series mostly up to about 120 µM
Target sequence (P11473 whole entry, looked up): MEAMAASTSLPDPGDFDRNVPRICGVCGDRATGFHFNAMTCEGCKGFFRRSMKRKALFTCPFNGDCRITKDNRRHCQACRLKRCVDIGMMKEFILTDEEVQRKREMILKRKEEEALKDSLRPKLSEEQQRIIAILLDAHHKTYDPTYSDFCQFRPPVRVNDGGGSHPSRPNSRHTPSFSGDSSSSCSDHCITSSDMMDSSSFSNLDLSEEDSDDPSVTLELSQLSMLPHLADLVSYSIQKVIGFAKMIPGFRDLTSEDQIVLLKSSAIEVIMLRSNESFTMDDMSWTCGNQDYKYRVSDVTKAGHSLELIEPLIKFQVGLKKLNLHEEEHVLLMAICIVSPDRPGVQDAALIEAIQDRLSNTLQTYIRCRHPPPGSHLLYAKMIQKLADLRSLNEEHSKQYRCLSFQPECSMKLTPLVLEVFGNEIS
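VDR–SRC2-3 interaction, FP format. Cmpds 23 nl via pintool, brief spin, 2 h ambient incubation.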
The depositor's hits bear a star; u = inconclusive; & = joins results of further samples. % is scaled to controls: 0 for no effect and ±100 for the full control effect; potency is read from the fitted curve at half-maximal effect. Not all compounds are listed; count on the stated rates, not on these rows.

VDR inhibitor | SMILES
6% | CC1CCc2cc(F)cc3c(O)c(C(=O)NCc4ccco4)c(=O)n1c23 (stereo unspecified)
-5% | COc1ccccc1NC(=O)Nc1ccccc1C(=O)NCCCN1CCOCC1
u | COc1ccc(C2(CNC(=O)c3cccc([N+](=O)[O-])c3)CCOCC2)cc1OC
11% | CCOC(=O)c1scc(-c2ccc(C)cc2)c1S(=O)(=O)Nc1ccc(F)c(F)c1
-13% | CC[C@H](C)[C@H](NC(=O)[C@H](CO)NC(=O)[C@H](CC(N)=O)NC(=O)[C@H](CC(C)C)NC(=O)[C@H](Cc1ccc(O)cc1)NC(=O)[C@H](CCCCN)NC(=O)[C@H](CCCCN)NC(=O)[C@@H](NC(=O)[C@H](C)NC(=O)[C@H](CCSC)NC(=O)[C@H](CCC(N)=O)NC(=O)[C@H](CCCCN)NC(=O)[C@H](CCCNC(=N)N)NC(=O)[C@H](CC(C)C)NC(=O)[C@H](CCCNC(=N)N)NC(=O)[C@@H](NC(=O)[C@H](Cc1ccc(O)cc1)NC(=O)[C@H](CC(N)=O)NC(=O)[C@H](CC(=O)O)NC(=O)[C@@H](NC(=O)[C@H](Cc1ccccc1)NC(=O)[C@@H](NC(=O)[C@H](C)NC(=O)[C@H](CC(=O)O)NC(=O)[C@H](CO)NC(=O)[C@@H](N)Cc1cnc[nH]1)C(C)C)[C@@H](C)O)[C@@H](C)O)C(C)C)C(=O)N[C@@H](CC(C)C)C(=O)N[C@@H](CC(N)=O)C(N)=O
-5% | CCCn1c(NC(=O)C2CCN(C(=O)c3ccccc3C)CC2)nc2ccccc21
20% | Cc1n[nH]c(C)c1CCCOc1ccccc1
-25% | CSc1nc(C)cc(OCCNS(=O)(=O)c2cc(C)ccc2C)n1
10% | O=C(CCNS(=O)(=O)c1cccc2nsnc12)Nc1ccc2c(c1)OCCO2
-14% | COc1ccc(CCC(=O)Nc2nnc(C(C)(C)C)s2)cc1
-13% | Cc1c(Cl)c([N+](=O)[O-])nn1Cc1ccc(C(=O)N/N=C\c2cccc(Br)c2)o1
21% | O=C(CCC1CCCN(C(=O)c2ccc3c(c2)OCCO3)C1)NCc1ccccc1F (stereo unspecified)
-22% | C=C(C)C(=O)Nc1cccc(C2=NOC3(C2)C[C@H](C(N)=O)N(C(=O)CC)C3)c1 (stereo partly specified)
10% | COc1ccc(CCNC(=O)c2ccc(Cn3c(=O)c4ccccc4n(Cc4cccc(C)c4)c3=O)cc2)cc1OC
6% | Cn1c(=O)[nH]c(=O)c2c1nc(NCc1ccccc1)n2CC(O)c1ccccc1 (stereo unspecified)

A section from further up:
VDR inhibitor | SMILES
-13% | Cc1c(Cl)c([N+](=O)[O-])nn1Cc1ccc(C(=O)N/N=C\c2cccc(Br)c2)o1
21% | O=C(CCC1CCCN(C(=O)c2ccc3c(c2)OCCO3)C1)NCc1ccccc1F (stereo unspecified)
-22% | C=C(C)C(=O)Nc1cccc(C2=NOC3(C2)C[C@H](C(N)=O)N(C(=O)CC)C3)c1 (stereo partly specified)
10% | COc1ccc(CCNC(=O)c2ccc(Cn3c(=O)c4ccccc4n(Cc4cccc(C)c4)c3=O)cc2)cc1OC
6% | Cn1c(=O)[nH]c(=O)c2c1nc(NCc1ccccc1)n2CC(O)c1ccccc1 (stereo unspecified)

Next section
VDR inhibitor | SMILES
5% | Cc1ccc(S(=O)(=O)O)cc1C
-11% | Cc1ccc(N2CC(C(=O)Oc3cccc(N4C(=O)CCC4=O)c3)CC2=O)cc1 (stereo unspecified)
7% | COc1ccc(CCNC(=O)CN(c2cc(C)cc(C)c2)S(=O)(=O)c2c(C)noc2C)cc1OC
-15% | CCOC(=O)c1ccccc1NC(=O)CSc1nnc(C)c(=O)[nH]1
10% | CCCN(CCC)CCNC(=O)c1nn(C)c2c1CS(=O)(=O)c1ccccc1-2
-16% | Cc1ccc(N=c2oc3cc(O)ccc3cc2C(N)=O)cc1
10% | O=C(Nc1ccc(S(=O)(=O)Nc2ccc(Cl)cc2)cc1)C1CCCO1 (stereo unspecified)
-5% | CCOc1ccccc1NC(=O)Cc1coc2cc(C)ccc12
-4% | CCOc1ncccc1C(=O)Nc1nc(SC)ns1
-18% | CCn1c(SCC(=O)c2ccccc2)nnc1-c1cccs1
10% | Cn1c(SCc2ccccc2)nnc1-c1ccncc1
12% | COc1cc(C2NC(=S)NC(C)=C2C(=O)Nc2cc(C)cc(C)c2)ccc1O (stereo unspecified)
24% | OC(CN1CCCCC1)c1ccc(Br)cc1 (stereo unspecified)
-21% | COc1ccc(-c2nc(S(=O)(=O)c3ccc(C)cc3)c(N3CCCC3)o2)cc1
5% | COc1ccc(C2NC(=O)CS2)cc1OC (stereo unspecified)
-1% | CCc1ccc(OCC(=O)N/N=C(\C)c2ccc3c(c2)OCCO3)cc1
-8% | Cc1ccc(S(=O)(=O)NCC(C)NS(=O)(=O)c2ccccc2[N+](=O)[O-])cc1 (stereo unspecified)
-8% | CC(=O)N1CCCc2cc(S(=O)(=O)N3CCC(C(=O)NCc4ccc(N(C)C)cc4)CC3)ccc21
0% | COc1ccc(CNC(=O)CN2CCC(n3nnc4cc(F)ccc43)CC2)cc1
-11% | CCC(=O)N1N=C(c2ccc(NS(=O)(=O)c3ccccc3)cc2)CC1c1ccco1 (stereo unspecified)
11% | CCN1C(=O)c2ccccc2S(=O)c2ccc(C(=O)NCc3ccc(C)cc3)cc21 (stereo unspecified)
13% | CN(CC(=O)Nc1ccccc1Br)CC(=O)Nc1ccccc1C(F)(F)F
6% | CNC1(C(N)=O)CCN(Cc2ccccc2)CC1
1% | CC(C)C[C@H](CO)Nc1nc(N(C)c2cccc(Cl)c2)c2ncn(C(C)C)c2n1
4% | Cc1cccc(-c2n[nH]c([N+](=O)[O-])n2)c1
7%&-20% | O=C(CCSCc1cccc(Cl)c1)NCCc1ccc(Cl)cc1
6% | O=C(CSc1nc(=O)n(CCN2CCOCC2)c2c1CCC2)Nc1ccc(F)cc1F
6% | CC1(NC(=O)NCCCCCCNC(=O)NC2(C)CCS(=O)(=O)C2)CCS(=O)(=O)C1 (stereo unspecified)
12% | COc1ccccc1CCC(=O)N1CCC(n2nccc2NC(=O)C2CCOC2)CC1 (stereo unspecified)
25% | CC(C)(C)c1ccc(CN(Cc2ccco2)c2cnc(S(C)(=O)=O)nc2C(=O)Nc2ccc(F)cc2)cc1
10% | O=C(NCCc1ccccc1)C(=O)NCC(c1cccnc1)N1CCN(c2ccc(F)cc2)CC1 (stereo unspecified)
0% | Cc1ccc(-c2noc(-c3ccc(NCc4cccnc4)c([N+](=O)[O-])c3)n2)cc1
-6% | Cc1cc(OCC(=O)OCC(=O)NCc2ccco2)ccc1Cl
5% | Cc1ccc2nc(CSc3nnc(NC(=O)COc4ccccc4F)s3)cc(=O)n2c1
-8% | CCCCn1c(N)c(N(CC(C)C)C(=O)Cn2c(=O)oc3ccccc32)c(=O)[nH]c1=O
-12% | Cn1nccc1C(=O)OCC(=O)Nc1cccc(Cl)c1
-6% | CCC(C)(C)c1nnc(NC(=O)c2cccc([N+](=O)[O-])c2)s1
7% | COc1ccc(NC(=O)C2CCC(CNc3c(N4CCOCC4)c(=O)c3=O)CC2)cc1Cl (stereo unspecified)
-2% | CC(=C/c1ccccc1)/C=N/n1c(-c2ccncc2)n[nH]c1=S
-1% | C=CCNC(=O)COc1c(C)ccc(C)c1C
6% | CC1(C)C=C(c2ccc(C=O)s2)CC(C)(C)N1
-3% | COc1ccc(-c2nc3cnc(N4CCNCC4)nc3n(-c3ccccc3)c2=O)cc1
0% | Cc1nc2c(sc(=S)n2Cc2ccco2)c(=O)n1CC(=O)Nc1ccccc1
-3% | Cc1c(Cl)cccc1NC(=O)NCc1ccc(F)cc1
8% | Cc1nc2cnc(Oc3cccc(Cl)c3)nc2n(CCc2ccccc2)c1=O
19% | Clc1c(-c2nnc3n2CCCCC3)sc2ccccc12
-2% | COC(=O)N/N=C/c1cc(N=Nc2ccccc2Cl)ccc1O
3% | Cc1cccc(C(=O)NC(=O)Nc2ccc(-n3nc(C(F)(F)F)cc3C(F)(F)F)cc2)c1
0% | Cn1cc(CNC(=O)C2CCC(=O)N(Cc3cccc(C(F)(F)F)c3)C2)cn1 (stereo unspecified)
4% | Cc1c(C(=O)Nc2ccccc2Br)oc2ccc(S(=O)(=O)N3CCCCC3)cc12
-6% | O=C(NC1CCCC1)C1CCC(CNS(=O)(=O)c2ccc(F)cc2)CC1 (stereo unspecified)
-2% | COc1ccc(C(=O)N2CCc3ccc(NC(=O)c4ccccn4)cc3C2)cc1F
-12% | Cc1cc(C(=O)N/N=C/c2ccc[nH]2)n[nH]1
-18% | O=C(N/N=C/c1cc(Br)c(Br)o1)c1cccnc1
-2% | Cc1ccc(N2CN(Cc3ccco3)CNC2=S)c(C)c1
-9% | CSc1ncc2[nH]c(C(O)c3ccccc3)nc2n1 (stereo unspecified)
-3% | COc1ccc2[nH]c3c(=O)n(CCCC(=O)NC4CCCCC4C)c(=S)[nH]c3c2c1 (stereo unspecified)
-5% | COc1ccc(-c2ccc(SCC(=O)c3cccs3)nn2)cc1OC
-4% | Cc1ccc(S(=O)(=O)n2nc(OC(=O)c3ccccc3C)cc2N)cc1
8% | COc1ccc(/C=c2\s/c(=C/C(=O)c3ccc(C)cc3)[nH]c2=O)c(OC)c1

The list continues.
VDR inhibitor | SMILES
19% | Cc1ccc(S(N)(=O)=O)cc1
-8% | O=C(Nc1ccnn1C1CCN(C(=O)c2ccc(Cl)c(F)c2)CC1)C1CCOC1 (stereo unspecified)
-1% | Cc1cc(Cl)ccc1NC(=O)C(=O)NCc1ccco1
12% | CC(C)[C@H](Nc1ccc(C(F)(F)F)cc1[N+](=O)[O-])C(=O)O
-3% | Cc1cccc(OCC(=O)O/N=C(\N)Cc2ccc(Cl)cc2)c1
-7% | O=C(NCc1ccccc1)C1(C(F)(F)F)C/C(=C/Cc2ccccc2)CCCO1 (stereo unspecified)
-5% | CCOc1ccc(NS(=O)(=O)c2ccc3[nH]c(=O)oc3c2)cc1
1% | N[C@@H](Cc1cnc[nH]1)C(=O)Nc1ccc2ccccc2c1
8% | Cc1noc(C)c1C(=O)OCC(=O)/C=C1\N(C)c2ccccc2C1(C)C
-5% | Cc1cc(C(=O)COC(=O)c2cccc(NS(C)(=O)=O)c2)c(C)n1CC1CCCO1 (stereo unspecified)
2% | COc1ccc(N2CCOCC2)c(NC(=O)c2ccco2)c1
4% | Cc1cccc(C)c1NC(=O)CN1CCNCC1
10% | CCOc1ccc(C(=O)NCC2CCN(CC3CCCCC3)CC2)cc1
-25% | CCOc1ccc(/C=C(\C#N)C(=O)NCC2CCCO2)cc1OCC (stereo unspecified)
-9% | COc1ccc2oc(C(=O)OCC(=O)N3CCN(C(C)=O)CC3)c(C)c2c1
-5% | O=S(=O)(Nc1cccc(-n2cnnn2)c1)c1ccccc1C(F)(F)F
-15% | CC1CC(C)CN(C(=O)Cn2nnc(-c3ccc(Br)cc3)n2)C1 (stereo unspecified)
-15% | CCOC(=O)C1CCN(C(=O)COc2ccc(C(=O)c3ccccc3)cc2)CC1
-8% | Cc1ccc(CNC(=O)CC(NC(=O)c2ccccc2)c2ccccc2)cc1 (stereo unspecified)
9% | Cn1nnc(NC(=O)c2cccs2)n1
3% | CCN1CCN(c2ccc(S(=O)(=O)N3CCOCC3)cc2NC(=O)COc2ccc(F)cc2Cl)CC1
5% | O=C(OC(C(=O)NCc1ccc2c(c1)OCO2)c1ccccc1F)c1ccco1 (stereo unspecified)
-5% | O=C(CN1CCC(NC(=O)Nc2ccccc2)CC1)Nc1ccc([N+](=O)[O-])cc1
12% | CCOC(=O)c1c(C)nn(-c2ccc(NC(=O)CSCC(=O)O)cc2)c1C
-11%&-11% | Clc1cccc(Nc2nnc(-c3ccccc3)c3ccccc23)c1
3% | O=C(Nc1cnc(N2CCN(c3ccccc3)CC2)c(C(=O)O)c1)c1cccs1
1% | FC(F)(F)c1cc(NC(=S)NC23CC4CC(CC(C4)C2)C3)cc(C(F)(F)F)c1
-6% | Cc1ccc(OCC(=O)NNC(=O)Nc2ccc(Cl)cc2)c(Br)c1
6% | COc1ccccc1C(=O)NC(=O)COC(=O)c1ccc(Cl)cc1[N+](=O)[O-]
1% | O=C(Nc1ccccc1)c1cccnc1Nc1ccccc1

In another format: entries from further up
SMILES: O=C(CN1CCC(NC(=O)Nc2ccccc2)CC1)Nc1ccc([N+](=O)[O-])cc1
  VDR inhibitor = -5%
SMILES: CCOC(=O)c1c(C)nn(-c2ccc(NC(=O)CSCC(=O)O)cc2)c1C
  VDR inhibitor = 12%
SMILES: Clc1cccc(Nc2nnc(-c3ccccc3)c3ccccc23)c1
  VDR inhibitor = -11%&-11%

(cont.)
VDR inhibitor | SMILES
25% | Cc1ccc(NC(=O)c2cncc(Br)c2)nc1
2% | Cc1c(C(=O)OCc2ccccc2)nnn1-c1nonc1N
-24% | CCOc1cc(N2CCOCC2)c(OCC)cc1NC1=NCCCCC1
4% | O=C1Nc2ccc(Cl)cc2C12OCCCO2
-13% | O=C(CSc1ccc(-c2ccncc2)nn1)N1CCN(c2ccccc2)CC1
-10% | COc1ccc2oc(=N)c(C(=O)Nc3ccc(Cl)cc3)cc2c1
1% | COC(=O)c1ccc(-c2sc3nc(N4CCOCC4)c4c(c3c2N)CCCC4)o1
2% | CCOc1ccc(NC(=O)C(Cc2ccccc2)NC(=O)C2CCCCC2)cc1 (stereo unspecified)
8% | CC1CCN(c2oc(/C=C/c3ccc(F)cc3)nc2C#N)CC1
-6% | COc1ccccc1CNC(=O)CCCc1ccccc1
-12% | CCCCC(=O)Nc1cc(NC(=O)CC)ccc1Cl
8% | O=c1[nH]c(=O)n(C2CCCCCC2)c(O)c1C=NCc1ccc(F)cc1
-4% | CCO/C=N/c1c(C#N)c(CC#N)nn1-c1ccccc1
13% | CCOCCc1nn2c(=O)cc(COC(=O)c3ccc(NC(=O)c4cccs4)cc3)nc2s1
9% | Cc1ccc(Cl)cc1N1CCN(C(=O)C2CCN(S(=O)(=O)c3cn(C)cn3)CC2)CC1
